BJeLR viability: MLPCN primary cell-based screen for lethality selective to Ras in HRASV12 cells | BJeLR (HRASV12) viability, CellTiter-Glo ATP luminescence, 48 h; reference of the scale not given here | inhibition, % (no concentration beside the values) | hit rate 0.17% among 300,000 | AID 1554, 2009;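 active = replicate mean above 50%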;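 also: 50 nL library stock added to about 25 µL; numbers are from one replicate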
Mtb hypoxia inh: PubChem AID 1159583. M. tuberculosis hypoxia-regulated fluorescent reporter, fluorescence. fluorescence inhibition, % (no concentration beside the values). hit rate 0.1% among 300,000;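 active = 35 to 45% if threefold the growth effect, above 45% if 1.5-fold the growth effect; inactive = the rest, general growth blockers included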;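 also: wells of about 50 µL received 100 nL stock; 0% = vehicle wells and 100% = reference inhibitor wells; whole bacteria with a GFP reporter of the hypoxia response; strong numbers were not always called active; many hits fall short of the cut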
Sa RN4220 lethal: growth inhibition of S. aureus RN4220, primary screen, OD600. 16 h. inhibition, % (concentration not given with the values). hit rate 0.33% among 330,000;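 active = z-score of -3 or lower and OD600 up to 0.18 on both plates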;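 also: plate controls were untreated cells for no effect and reference antibiotic for full effect; stock transfer was 100 nL into about 80 µL; one replicate is shown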
Bead autofluor: flagged as autofluorescent in microsphere protease counterscreen | compound autofluorescence counterscreen, microsphere flow cytometry; active compounds read high | fluorescence intensity (test concentration not listed) | hit rate 3.1% among 360,000 | AID 624483;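 active = at least 3 SD above the mean of all compounds, about 16000 in these data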;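 also: 100 nL of 1 mM stock went into each well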
PrP UTR inh: inhibition of PrP 5' UTR reporter expression; cell-based PrP 5' UTR mRNA reporter, plate reader; inhibition, % (no concentration beside the values); hit rate 0.35% among 340,000;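 active = every replicate at 50% or more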;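 also: 0 = median of the neutral control wells; tested in H4 reporter cells; numbers are from one replicate; inactives centre near -14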
ugtP null kill: growth inhibition of ugtP-null S. aureus, primary screen, RN4220 ugtP deletion, OD600 | 16 h; some inactives read as strong as hits | growth inhibition, % (no concentration beside the values) | hit rate 0.54% among 330,000 | AID 1259309, 2017;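 active = z-score under -3 and OD600 up to 0.15 on both plates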;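 also: plate controls were untreated wells for no effect and antibiotic for full effect; wells of about 80 µL received 100 nL stock; the first replicate is given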
Mtb hypoxia inh growth: also measured in Mtb hypoxia inh; calls as there; growth inhibition, %; measured here: M. tuberculosis growth (absorbance);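 0% = vehicle and 100% = reference antibiotic; read after six days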
An asterisk follows results filed as active; . = no result given.

SMILES | BJeLR viability | Mtb hypoxia inh | Mtb hypoxia inh growth | Sa RN4220 lethal | Bead autofluor | PrP UTR inh | ugtP null kill
N#Cc1nc(Cc2cccc3ccccc23)oc1N1CCCCC1 | -4.2 | 2.5 | 6.0 | 0.0 | 2408 | -4.8 | -8.1
COc1ccc(C(=O)C2CCCN(S(=O)(=O)C(C)C)C2)c(C)c1 (centres undefined) | 4.5 | 14.7 | 1.0 | 8.5 | 4504 | -21.2 | 6.6
COc1cc2c(cc1OC)CN(C(=O)Nc1ccccc1Cl)CC2 | 3.4 | 22.2 | 11.1 | 5.0 | 3895 | -17.1 | -0.3
CN1CCN(c2ccccc2NC(=S)NC(=O)c2cc3ccccc3o2)CC1 | 6.5 | 18.5 | 24.7 | -8.4 | 5213 | -31.8 | 7.1
O=C(/C(=N\Nc1ccc(Br)cc1)Sc1nnnn1-c1ccccc1)c1ccccc1 | -3.9 | . | . | . | 2648 | -16.4 | .
Cc1n[nH]c(C)c1S(=O)(=O)N1CCC(C(=O)N2CCn3c2nc2ccccc23)CC1 | 1.3 | -3.6 | -0.6 | 3.1 | 9581 | -9.1 | 5.7
Cc1cc(C)cc(N2C(=O)CC(Sc3ccccc3C(=O)O)C2=O)c1 (centres undefined) | -0.6 | 16.8 | 8.5 | 8.8 | 4678 | -25.8 | 9.6
Cc1ccnc(SCc2cc(=O)c(OC(=O)c3cc([N+](=O)[O-])ccc3Cl)co2)n1 | -6.2 | -2.3 | 1.0 | 4.1 | 2532 | -9.6 | 10.6
Cc1ccc2nc(NC(=O)c3ccc(S(=O)(=O)N4CCCc5ccccc54)cc3)sc2c1 | 1.7 | 10.2 | 6.5 | 9.3 | 2114 | -9.6 | -11.1
O=C(CSc1nccc(=O)[nH]1)Nc1ccc(S(=O)(=O)N2CCOCC2)cc1 | -8.8 | 7.4 | -2.0 | 2.4 | 10866 | -19.4 | 2.0
O=C(NCc1ccccc1OC(F)(F)F)C1CCC(=O)N(Cc2cccc(F)c2)C1 (centres undefined) | -8.9 | 5.9 | 3.9 | 1.0 | 5368 | -4.6 | 3.0
O=C(NN=Cc1ccc(Cl)s1)C(O)c1ccccc1 (centres undefined) | . | -3.1 | 10.9 | 0.7 | . | . | 4.6
OCCC1CN(Cc2ccc3nsnc3c2)CCN1C1CCCCC1 (centres undefined) | 0.5 | -2.8 | 11.4 | -1.2 | 2177 | -18.0 | 2.9
CC(NC(=O)C1(C)CC1(Br)Br)C(C)(C)C (centres undefined) | -3.4 | 14.7 | 2.9 | 1.6 | 2409 | 1.8 | 13.9
CC(Sc1nnc(C2CC2)n1C1CC1)C(=O)N(C)C1(C#N)CCCCC1 (centres undefined) | . | 7.0 | -5.0 | 0.2 | 8566 | -0.5 | 0.0
CC1CN/C(=C\C(=O)c2ccc(Cl)cc2)C(=O)N1 (centres undefined) | 5.5 | 6.3 | 23.6 | 11.8 | 24766* | 10.6 | -4.9
Cc1cccc(NC(=O)[C@@H](NC(=O)[C@@H]2Cc3ccccc3CN2)C(C)C)c1 | -3.1 | 1.2 | 9.9 | -1.4 | 5373 | -13.8 | 3.5
CC(=O)Nc1ccc(NC(=O)/C(Cl)=C/c2ccccc2)cc1 | -2.1 | . | . | 5.3 | 4359 | -92.9 | -6.4
CC(=O)c1cccc(NC(=O)C2CCN(S(=O)(=O)c3cccs3)CC2)c1 | 4.7 | -2.1 | 1.7 | 2.0 | 4297 | -2.9 | 1.8
O=C(CC(C(=O)c1ccccc1)c1ccccc1)c1ccccc1 (centres undefined) | . | 2.0 | 1.1 | 5.4 | 4062 | -28.6 | 5.3
O=C(CSc1nc2c(c(=O)[nH]1)CCC2)Nc1cccc(F)c1 | -1.3 | -4.7 | 2.6 | 4.4 | 5777 | -11.0 | 4.2
COc1ccc(C(=O)NC2CCCCCC2)cc1S(=O)(=O)N1CCOCC1 | -1.1 | 5.0 | 5.8 | -0.9 | 6019 | -10.4 | 2.3
O=C(c1ccc(N2CCNCC2)cc1)c1cccnc1 | 2.4 | . | . | -0.5 | 3677 | -21.5 | -1.8
CCCCN1C(=O)/C(=C(/C#N)C(N)=O)c2ccccc21 | 0.8 | 4.5 | 8.8 | 8.3 | 10466 | -26.5 | 3.4
S=C(N/N=C/c1ccccc1)N1CCOCC1 | 4.7 | . | . | . | 4420 | -20.0 | .
Remaining list, next part
SMILES | BJeLR viability | Mtb hypoxia inh | Mtb hypoxia inh growth | Sa RN4220 lethal | Bead autofluor | PrP UTR inh | ugtP null kill
CO/N=C/c1ccc(N2CCN(C(=O)c3ccc(C)cc3)CC2)c([N+](=O)[O-])c1 | -1.3 | . | . | . | 24171* | -19.3 | .
O=C(CC(c1ccccc1)c1ccccc1O)NCCN1CCOCC1 (centres undefined) | -1.0 | -8.7 | -1.6 | 0.5 | 4117 | -17.7 | 0.5
COc1ccc(OC)c(NC(=O)CN2C(=O)CSc3ccc(S(=O)(=O)N4CCCC4)cc32)c1 | 13.0 | . | . | . | 5812 | -6.0 | .
Cc1ccc(CN2CCN(C/C=C/c3ccc(F)cc3)CC2CCO)o1 (centres undefined) | 12.3 | 5.7 | 9.7 | 3.2 | 3575 | -0.2 | 16.7
CCOC(=O)c1ccc(S(=O)(=O)NCC(C)(C)N2CCOCC2)cc1 | -3.2 | 15.1 | 6.8 | -0.3 | 5099 | -25.7 | 8.8
CC1CN(C(C)CO)C(=O)c2cccc(NS(=O)(=O)c3cn(C)cn3)c2OC1CN(C)CC1CCCCC1 (centres undefined) | . | 13.0 | 9.6 | 4.7 | . | . | 1.9
Cc1ccc(C(=O)C[n+]2cccc(C(N)=O)c2)cc1 | -0.8 | -1.3 | -4.0 | -4.2 | 2851 | -21.0 | -5.9
CNC(=O)CSc1cnc2ccccc2n1 | 7.8 | 2.4 | -0.9 | -0.6 | 2389 | 3.2 | 6.4
CCC(C)(C)NC(=O)CCCSc1nc2ccccc2[nH]1 | -1.5 | 12.7 | 11.3 | 8.5 | 5419 | -22.4 | 2.4
Cc1ccnc(NS(=O)(=O)c2ccc(Cl)nc2)c1 | 5.5 | 11.2 | -3.6 | 4.6 | 5552 | -4.9 | 3.6
O=C(CN1CCN(c2ccccc2O)CC1)NC(c1ccccc1)c1ccccc1 | 7.1 | 1.9 | 7.9 | 10.3 | 10693 | -11.5 | -0.6
O=[N+]([O-])c1ccc(CN2CC=C(c3ccccc3)CC2)cc1 | -6.8 | 5.9 | 6.1 | -0.6 | 4647 | 8.0 | 19.7
NC(=O)c1ccsc1NC(=O)COC(=O)Cc1cccc2ccccc12 | 0.3 | 3.7 | 12.4 | 2.3 | 3121 | -34.2 | -15.6
Cc1ccc(C)c(OCCC(=O)OCC(=O)NC(=O)NCc2ccccc2)c1 | 1.8 | 6.5 | -4.6 | 1.1 | 5617 | -6.1 | 4.8
Cc1cccc(OCC(=O)NNC(=O)C2CCCCC2C(=O)O)c1 (centres undefined) | -5.1 | 15.9 | 1.4 | 3.3 | 1942 | -15.0 | 2.4
CCOC(=O)C1=C(O)C(=O)N(c2ccccc2)C1c1cccc([N+](=O)[O-])c1 (centres undefined) | 7.4 | -10.8 | -4.1 | 12.1 | 4123 | -3.7 | -8.0
COc1cc(OC)c(Cl)cc1N | 0.6 | 15.0 | 5.1 | 0.2 | 3892 | -6.8 | -0.8
CCOC(=O)c1c(C)n(C)c2ccc(OCC(O)CN3CCC(C)CC3)cc12 (centres undefined) | 3.0 | . | . | -1.5 | 5417 | -5.9 | 2.8
CCOC(=O)c1nn(C23CC4CC(CC(C4)C2)C3)c2c1C(=O)N(c1ccc(C)cc1)C2=O | -1.0 | 7.1 | 1.4 | -9.0 | 2995 | -12.4 | -8.5
COCC(C)N1CCC(n2nccc2NC(=O)CCOc2ccccc2)CC1 (centres undefined) | -3.0 | 2.1 | 4.4 | -3.8 | 5165 | -32.3 | 5.0
CCCCNC(=S)NN=Cc1ccccc1F | . | 11.7 | 7.4 | 4.1 | . | . | 15.7
Cc1ccc(Nc2c([N+](=O)[O-])c(=O)n(C)c3ccccc23)cc1C | -5.8 | 2.2 | 2.3 | 2.6 | 21534* | -3.3 | -6.6
C[n+]1ccccc1/C=C/c1ccc(F)c(F)c1 | -0.8 | -10.5 | 7.5 | -1.4 | 3528 | -21.6 | -7.0
Fc1cccc(NC(=S)N2CCc3ccccc32)c1 | . | 5.7 | 2.0 | 4.4 | 5444 | -17.6 | -7.1
CCOc1ccc(CCNC(=O)c2cc3sc(Cl)cc3n2C)cc1OCC | 5.8 | 3.7 | 3.9 | 8.6 | 3094 | -5.5 | -1.1
Continuation:
SMILES | BJeLR viability | Mtb hypoxia inh | Mtb hypoxia inh growth | Sa RN4220 lethal | Bead autofluor | PrP UTR inh | ugtP null kill
Cc1ccc(C)c(NS(=O)(=O)c2cc(Br)cnc2N)c1 | 3.3 | . | . | 9.6 | 2425 | -11.0 | -15.5
Cc1ccc(S(=O)(=O)N2CCN(c3cccc(C)c3)CC2)cc1 | 5.7 | -1.6 | 5.5 | 7.0 | 3664 | -14.7 | 16.2
O=C(Nc1ccccc1)N1CCSCC1 | 2.5 | 6.6 | -1.6 | 7.0 | 3267 | 7.0 | 3.7
Cc1nc(CSc2nsc(/C=C/N(C)C)c2C#N)cs1 | -12.7 | 3.4 | -3.8 | -2.7 | 2126 | -41.8 | -7.7
Cc1ccc(Sc2nc(C)cc(C)c2S(C)(=O)=O)cc1 | -11.6 | 11.7 | 6.3 | 8.2 | 2880 | -20.2 | 3.4
O=C(NNC(=O)c1c(F)cccc1F)c1ccccc1-n1cccc1 | 4.6 | 11.7 | 1.0 | 1.0 | 4377 | -8.0 | 1.8
CC12CCC(=O)N1C(C(=O)OCC(=O)Nc1ccc(Cl)c(Cl)c1)CS2 (centres undefined) | 3.3 | -0.9 | 11.2 | 6.0 | 4442 | -20.8 | 3.1
CCC1([N+](=O)[O-])COC(c2ccc(C(C)C)cc2)OC1 (centres undefined) | . | 8.7 | 5.2 | 4.3 | 3794 | -28.5 | -1.0
NS(=O)(=O)c1ccc(CNC(=S)NCc2ccc(Cl)cc2)cc1 | -9.6 | 7.2 | 0.9 | 0.0 | 3041 | -2.8 | 1.2
O=C(CCCOc1ccccc1)Nc1cc(S(=O)(=O)N2CCOCC2)ccc1N1CCOCC1 | . | -6.3 | 3.4 | -0.6 | 8452 | -6.2 | -3.8
Cc1ccc(O)c(C(=O)c2cnc3c(c2)COc2ccc(C)cc2-3)c1 | 3.4 | . | . | 5.8 | 4303 | -28.0 | 44.6
CC(C)c1cc(=O)n2[nH]c(SCc3ccc(Cl)cc3)nc2n1 | -6.1 | 6.6 | 8.5 | 10.7 | 3614 | -36.3 | 2.8
O=C(C[C@H]1C[C@H](C(=O)N2CCOCC2)[C@@]2(CCC3CCCC3)c3[nH]c4cc(-c5ccco5)ccc4c3CCN2C1=O)NCCCn1ccnc1 | . | 3.4 | 11.2 | 1.0 | 3135 | -3.9 | 0.2
COc1cccc(NC(=O)CNC(C)CCC(C)C)c1 (centres undefined) | -4.9 | 6.0 | 2.4 | 23.7 | 2535 | -8.6 | 17.2
Cc1ccc(N2CC(C(=O)N3CCC(C(=O)NC(C)(C)C)CC3)CC2=O)cc1 (centres undefined) | 7.7 | 0.4 | -2.3 | 1.3 | 2781 | -11.5 | 5.7
CCOC(=O)c1ccc(NS(C)(=O)=O)cc1 | -2.4 | -0.3 | 9.4 | -0.5 | 3311 | -34.7 | -7.1

Arranged by length of the SMILES (highest first): part of the list above
SMILES | BJeLR viability | Mtb hypoxia inh | Mtb hypoxia inh growth | Sa RN4220 lethal | Bead autofluor | PrP UTR inh | ugtP null kill
CCC1([N+](=O)[O-])COC(c2ccc(C(C)C)cc2)OC1 (centres undefined) | . | 8.7 | 5.2 | 4.3 | 3794 | -28.5 | -1.0
O=C(NNC(=O)c1c(F)cccc1F)c1ccccc1-n1cccc1 | 4.6 | 11.7 | 1.0 | 1.0 | 4377 | -8.0 | 1.8
Cc1nc(CSc2nsc(/C=C/N(C)C)c2C#N)cs1 | -12.7 | 3.4 | -3.8 | -2.7 | 2126 | -41.8 | -7.7

Some entries already given, limited to PrP UTR inh, ugtP null kill and Bead autofluor.
molecule,PrP UTR inh,ugtP null kill,Bead autofluor
CC(C)c1cc(=O)n2[nH]c(SCc3ccc(Cl)cc3)nc2n1,-36.3,2.8,3614
O=C(NNC(=O)c1c(F)cccc1F)c1ccccc1-n1cccc1,-8.0,1.8,4377
Cc1ccc(O)c(C(=O)c2cnc3c(c2)COc2ccc(C)cc2-3)c1,-28.0,44.6,4303
O=C(Nc1ccccc1)N1CCSCC1,7.0,3.7,3267
Cc1nc(CSc2nsc(/C=C/N(C)C)c2C#N)cs1,-41.8,-7.7,2126
NS(=O)(=O)c1ccc(CNC(=S)NCc2ccc(Cl)cc2)cc1,-2.8,1.2,3041

Assay outcomes as filed in PubChem.
